rRNA inh HTS = reduced GFP signal of wild-type E. coli, primary screen, bacterial rRNA inhibitor project, GFP/RFP fluorescence, OD600, single point | GFP signal change (wild-type ribosome), % (test concentration not listed) | E. coli WT GFP vs humanized-ribosome RFP mutants, 24 h; hits give low values; DMSO median 0, no signal -100 | hit rate 1.6% among 350,000 | AID 720706, 2013;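 active = significant combined selectivity score with lowered wild-type GFP, culture density cut under 30%, mutant RFP and density less affected; inactive = any of these conditions unmet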; note: one replicate is shown; some compounds called inactive have numbers as strong as hits
UCH37 DUB inh = inhibitors of human UCH37 deubiquitinase, primary screen, biochemical, Ub-AMC cleavage, fluorescence | Ubiquitin carboxyl-terminal hydrolase isozyme L5 (Homo sapiens), Q9Y5K5 | purified proteasome/UCH37 | inhibition, % (test concentration not listed) | hit rate 0.33% among 330,000 | AID 588478, 2011;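 active = mean of two replicates above 20%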;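 note: 0% = compound-free wells with enzyme and 100% = wells lacking proteasome; stock transfer was 100 nL into about 20 µL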
Target sequence (Q9Y5K5 whole entry, looked up): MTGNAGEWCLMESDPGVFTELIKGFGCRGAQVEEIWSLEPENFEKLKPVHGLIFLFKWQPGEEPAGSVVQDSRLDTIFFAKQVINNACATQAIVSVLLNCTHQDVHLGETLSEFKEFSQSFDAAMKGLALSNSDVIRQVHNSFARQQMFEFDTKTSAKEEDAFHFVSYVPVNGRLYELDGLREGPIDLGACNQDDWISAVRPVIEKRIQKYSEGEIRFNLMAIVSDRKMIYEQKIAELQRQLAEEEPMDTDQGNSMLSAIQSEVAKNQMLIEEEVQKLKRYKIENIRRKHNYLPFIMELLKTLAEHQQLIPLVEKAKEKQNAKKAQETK
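Signal – fluorescence, ex 355 nm, em 460 nm · System – Proteasome-bound UCH37 · Input – 0.15 nM proteasome as dispensed · Timing – 30 min preincubation with enzyme, 25 min cleavage at room temperature · Read-out basis – percent inhibition of cleavage signal versus uninhibited and no-proteasome wells · Medium – Tris-HCl pH 7.4 with ATP-MgCl2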
Ecoli growth = E. coli growth inhibition, primary screen, OD600 | Escherichia coli growth, 23 h; hits give low values | OD600 absorbance (concentration not given with the values) | hit rate 0.21% among 330,000;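 active = OD600 absorbance below the run mean of sample wells minus 3.6 SD, in any replicate, cut at about 0.56 in these data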;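 note: stock transfer was 300 nL into about 60 µL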
HNF4A DNA FP = change in binding of human HNF4A to DNA, primary screen, biochemical, fluorescence polarization, FITC-DNA. Hepatocyte nuclear factor 4-alpha (Homo sapiens), P41235. 1 h. activity change, % at 10 µM. hit rate 0.3% among 360,000; in the data active = activity change above about 30%, passing the limit was not always enough;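 note: controls were the assay level and a saturating level of protein; the project sought stronger binding though the title names inhibitors; some compounds called inactive have numbers as strong as hits; positive values seem to mean higher polarization but the record does not say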
ALR inh = inhibitors of human ALR sulfhydryl oxidase, primary screen, biochemical, H2O2 detection, HRP-luminol luminescence, single point | purified ALR, DTT oxidation | AID 485317, 2010 | hit rate 3.8% among 290,000 | inhibition, % (test concentration not listed);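 active = mean and each replicate at 75% or more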;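 note: stock transfer was 7.5 nL into about 7.5 µL; 0% = neutral wells and 100% = wells with inactivated enzyme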
Target sequence (P55789 whole entry, looked up): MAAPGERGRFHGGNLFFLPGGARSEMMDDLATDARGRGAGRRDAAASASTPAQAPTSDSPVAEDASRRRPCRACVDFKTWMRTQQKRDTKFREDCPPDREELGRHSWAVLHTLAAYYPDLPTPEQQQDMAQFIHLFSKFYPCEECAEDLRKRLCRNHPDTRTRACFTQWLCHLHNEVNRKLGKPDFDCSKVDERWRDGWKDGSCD
FGF22 binding = binders of human FGF22 protein, primary screen, FGF22 synaptogenesis inhibitor project, biophysical, thermal shift, single point | recombinant FGF22 thermal shift, SYPRO orange fluorescence; percent of sucrose octasulfate shift, DMSO zero | calls only at 9.99 µM | hit rate 1.5% among 340,000 | AID 651658, 2012;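 active = melting point raised past a set limit in the mean and every replicate; three in four hits are not shown here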
Target sequence (Q9HCT0 whole entry, looked up): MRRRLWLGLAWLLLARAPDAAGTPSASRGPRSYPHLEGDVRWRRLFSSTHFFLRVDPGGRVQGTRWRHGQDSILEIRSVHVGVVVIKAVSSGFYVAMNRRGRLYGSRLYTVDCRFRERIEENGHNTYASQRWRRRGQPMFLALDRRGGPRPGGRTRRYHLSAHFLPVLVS
B2AR ag = beta2AR agonists driving receptor internalization, primary screen, cell-based, FAP fluorogen, flow cytometry. AID 504454, 2011. hit rate 0.43% among 340,000. Am2.2-beta2AR cells; reference of the scale not given here. Beta-2 adrenergic receptor (Homo sapiens), P07550. response, % (test concentration not listed);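 active = response above a set limit, near 3 SD of response in nonfluorescent compounds, cut at about 42% in these data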;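 note: stock transfer was 100 nL into about 11 µL; a reference agonist was the positive control; negative values mostly stem from fluorescent compounds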
rRNA inh HTS OD600 = further read-out of rRNA inh HTS, marked with its call; OD600 change, %; measured here: OD600 growth;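 optical density of the mix in the first replicate; 0 = DMSO median and -100 = no signal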
rRNA inh HTS RFP = second read-out of rRNA inh HTS, no call of its own (marks repeat the call); RFP signal change, %; measured here: RFP humanized mutant strains;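 first replicate; 0 = DMSO median and -100 = no signal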
* = called active by the depositor; i = inactive; x = no result given; + = active, no number.

No.	Structure	rRNA inh HTS	rRNA inh HTS OD600	rRNA inh HTS RFP	UCH37 DUB inh	Ecoli growth
1	CCOC(=O)c1c(NC(=O)C2C3C=CC(C3)C2C(=O)O)sc2c1CCC(CC)C2 (stereo unspecified)	x	x	x	-13	0.65
2	O=C(NCCCn1ccnc1)C1CCCN(S(=O)(=O)c2ccc(F)cc2)C1 (stereo unspecified)	6	6	-0.5	0.2	0.7
3	CCOc1ccc(CC(=O)NCC(=O)NCc2cc(=O)n(C)c(=O)n2C)cc1	3	8	-0.5	0.2	0.69
4	CCOC(=O)N1CCN(/C=C(\C#N)c2nc3ccccc3s2)CC1	x	x	x	15	0.68
5	Cc1nc2ccccc2n1CCOc1ccc([N+](=O)[O-])cc1	-18	-28	-3.7	6.7	0.66
6	Cc1ccc(C(=O)COC(=O)CN2C(=O)C3C4CC(C(Br)C4Br)C3C2=O)cc1 (stereo unspecified)	5	1	-1.4	3.4	0.71
7	CCOC(=O)[C@H]1[C@H]2COc3ccc(Cl)cc3[C@@H]2N2C(=O)c3cc(Cl)ccc3NC(=O)[C@@]12C	-4	-13	-9.5	0.8	x
8	CCOC(=O)NC1=NCC(C)S1 (stereo unspecified)	6	19	-1.4	5.0	0.65
9	COc1ccc(CCNC(=O)C(=O)NCCC2CCCCN2S(=O)(=O)c2ccccc2)cc1 (stereo unspecified)	9	10	-0.1	3.6	0.7
10	COc1cccc(NC(=O)c2c(C)nn(-c3ccccc3)c2Cl)c1	-16	-18	-2.1	5.2	0.69
11	Cc1ccc(C(=O)O)cc1NS(=O)(=O)c1ccc2c(c1)oc(=O)n2C	8	10	1.0	2.2	0.68
12	Cc1ccc(-n2ncc3c(=O)n(CC(=O)N4CCN(c5ccccc5F)CC4)cnc32)cc1C	x	x	x	2.3	0.69

No.	HNF4A DNA FP	ALR inh	FGF22 binding	B2AR ag
1	-1.1	-3	x	2
2	-0.2	0	i	-3
3	-1.1	-4	i	-1
4	29	40	x	-171
5	-6.3	-4	i	0
6	1.9	-2	i	1
7	-0.1	x	i	20
8	0.5	0	i	-20
9	2.2	x	i	2
10	-0.3	-8	i	-9
11	5.0	-12	i	-61
12	-3.4	-1	x	4

The listing continues:
No.	Structure	rRNA inh HTS	rRNA inh HTS OD600	rRNA inh HTS RFP	UCH37 DUB inh	Ecoli growth
13	CC(=O)N1CCN(CC(=O)Nc2ccccc2Sc2ccccc2)CC1	x	x	x	4.7	0.71
14	Cn1c(SCC(=O)OC2CCCCC2)nnc1-c1ccc(S(=O)(=O)N2CCCC2)cc1	x	x	x	-2.1	0.71
15	Cc1ccc(S(C)(=O)=NC(=O)c2cc(C)on2)cc1 (stereo unspecified)	5	1	-3.6	3.2	0.7
16	CCC(C(=O)NC1C(=O)N2C(C(=O)O)=C(CSc3nnc(C)s3)CSC12)c1ccccc1 (stereo unspecified)	12	2	1.8	5.8	0.63
17	Cc1ccc(C)c(OCCC(=O)OCC(=O)N2CCN(S(=O)(=O)c3ccc(Cl)cc3)CC2)c1	8	6	-2.1	x	x
18	CC(C)NC(=O)CSc1nc2[nH]ncc2c(=O)[nH]1	-5	-1	-0.9	5.4	0.72
19	Cc1ccc[n+](C2C(c3ccc([N+](=O)[O-])cc3)C(C#N)=C([S-])NC2(O)C2CC2)c1 (stereo unspecified)	-13	9	6.6	6.2	0.67
20	Cc1cc(C(=O)Nn2cnc3ccccc3c2=O)ccc1[N+](=O)[O-]	23	18	3.2	1.3	0.72
21	COc1ccc(/C=N/Nc2cc(=O)n(C)c(=O)n2C)cc1OC	-12	-10	-5.4	x	x
22	C=C(C)CN(CC)C(=O)CCc1nnc(CCCc2ccccc2)o1	1	-4	0.1	2.0	0.66
23	OC1C=CSc2nc3ccccc3n21 (stereo unspecified)	x	x	x	1.1	0.74
24	Cc1ccc2c(c1)nc(NCCO)n2C	x	x	x	-6.1	0.68

No.	HNF4A DNA FP	ALR inh	FGF22 binding	B2AR ag
13	-1.8	-1	x	0
14	-3.9	-3	x	6
15	-3.1	0	i	3
16	0.4	-10	i	1
17	1.2	57	i	4
18	2.6	-10	i	1
19	-1.9	58	i	4
20	2.1	-24	x	-3
21	-3.6	-27	i	-2
22	10	-2	i	-4
23	1.8	86*	x	12
24	-0.2	6	x	-7

Other results
No.	Structure	rRNA inh HTS	rRNA inh HTS OD600	rRNA inh HTS RFP	UCH37 DUB inh	Ecoli growth
25	COc1cc(-c2c(C#N)c(N)nc3c2c(C)nn3-c2ccc(C)c(C)c2)cc(OC)c1OC	x	x	x	-177	0.69
26	Cc1cc(OCC(=O)OCC(=O)N2CC(C)CC(C)C2)ccc1Cl (stereo unspecified)	x	x	x	0.9	0.7
27	O=C(O)c1ccc2c(c1)N(Cc1ccc(F)cc1)C(=O)c1ccccc1S2	-20*	-7.1*	3.1*	5.3	0.69
28	Cc1ccc(S(=O)(=O)N(C)CCCC(=O)N2CCOCC2)cc1	x	x	x	1.2	0.68
29	N/C(=N\N=Cc1ccc2c(c1)OCO2)NN=Cc1ccc2c(c1)OCO2	10	13	5.4	-12	0.68
30	Cc1ccc(S(=O)(=O)NCC2CCCO2)cc1 (stereo unspecified)	6	10	-2.7	3.8	0.64
31	O=C1NC(c2ccccc2)=C(c2nc3ccccc3s2)C(c2ccc(F)cc2)N1 (stereo unspecified)	x	x	x	-15	0.71
32	CSCCC(NC(=O)C12CC3CC(CC(C3)C1)C2)C(=O)OCC(=O)c1ccc(Cl)cc1 (stereo unspecified)	x	x	x	-0.2	0.71
33	COc1ccc(S(=O)(=O)N(C)C2CCN(C)CC2)cc1	7	16	-8.1	2.8	0.8
34	CCCCN1C(=O)c2ccc(C(=O)Nc3cccnc3)cc2C1=O	x	x	x	3.6	0.71
35	COc1cc(C(=O)OCC(=O)N2CCN(C(C)=O)CC2)ccc1OCC(C)C	7	1	-1.3	x	x
36	NC(=NC(=O)c1ccccc1)N1N=CCC1c1ccccc1 (stereo unspecified)	-9	-10	-1.0	1.0	0.62

No.	HNF4A DNA FP	ALR inh	FGF22 binding	B2AR ag
25	8.3	-1	x	9
26	4.0	-2	i	-1
27	1.1	-6	x	-7
28	0.6	-2	x	-3
29	-0.5	x	i	7
30	1.9	-15	i	0
31	1.7	-8	x	0
32	-2.8	-7	x	7
33	5.9	-14	i	7
34	1.4	-6	x	-8
35	-5.1	-16	i	-7
36	3.2	1	i	7

(continued)
No.	Structure	rRNA inh HTS	rRNA inh HTS OD600	rRNA inh HTS RFP	UCH37 DUB inh	Ecoli growth
37	O=C(NCCc1ccccc1)[C@@H]1CC=C[C@@H]2CCN(C3CCCCC3)C(=O)[C@@H]21	-4	-12	1.8	-0.1	x
38	Cc1cccc(Nc2cc(C)nc3ccccc23)c1	9	20	4.1	4.3	0.63
39	Cc1ccc(NC(=O)CSc2nnc(-c3ccncc3)n2C)cc1S(=O)(=O)N1CCOCC1	8	4	-0.2	4.3	0.67
40	Cc1nn(-c2ccccc2)c(C)c1/C=N/NC(=O)c1cc(-c2cccs2)[nH]n1	-38	-62	-5.9	x	x
41	COc1ccc(CN(C)CC(=O)NC(C)c2ccccc2)cc1OC (stereo unspecified)	1	-8	-1.6	0.9	0.71
42	CO[C@@]1(NC(=O)Cc2cccs2)C(=O)N2C(C(=O)O)=C(COC(N)=O)CS[C@@H]21	-3	3	-1.4	-1.6	x
43	CCOC(=O)c1sc2nc(CC(=O)OC)nc(NCC(=O)OC)c2c1C	2	4	2.7	-73	0.62
44	NS(=O)(=O)c1ccc(CNC(=O)/C=C/c2ccccc2)cc1	x	x	x	-1.4	0.74
45	CCN(CC)C(=O)[C@H]1C[C@H](CC(=O)NC/C=C(\C)CCC=C(C)C)C(=O)N2CCc3c([nH]c4cc(-c5ccco5)ccc34)[C@]12C	8	8	15	-16	0.73
46	Cc1ccc(NC(=O)CN2C(=O)CCSc3ccc(S(=O)(=O)N4CCCC4)cc32)cc1	3	-11	-1.5	1.8	0.67
47	CC[C@]12c3[nH]c4ccc(OC)cc4c3CCN1C(=O)C(CC(=O)NCCc1ccccn1)C[C@@H]2C(=O)N1CCN(C(=O)c2ccco2)CC1 (stereo partly specified)	16	9	2.4	-4.2	0.7
48	COc1cc(S(=O)(=O)NC2CCSc3ccccc32)ccc1NC(C)=O (stereo unspecified)	1	-2	0.5	x	x

No.	HNF4A DNA FP	ALR inh	FGF22 binding	B2AR ag
37	0.1	-5	i	-6
38	2.2	4	i	0
39	3.4	-2	i	3
40	-1.0	-2	+	10
41	3.0	-3	i	4
42	-9.8	24	i	-10
43	-1.9	x	i	12
44	1.4	-11	x	1
45	6.9	x	i	-3
46	1.2	-5	i	-9
47	3.3	x	i	2
48	0.3	19	i	9

(listing goes on)
No.	Structure	rRNA inh HTS	rRNA inh HTS OD600	rRNA inh HTS RFP	UCH37 DUB inh	Ecoli growth
49	Cc1ccc(-c2csc(NC(=O)/C=C/c3cccs3)n2)cc1C	-21	-1	14	-12	0.71
50	Cc1cc(C)cc(OCC(O)CN2C(=O)NC(C)(C)C2=O)c1 (stereo unspecified)	3	8	1.2	1.1	0.71
51	Cc1ccc(S(=O)(=O)c2c(C)nn(C(C)(C)C)c2OC(=O)C(C)(C)C)cc1	x	x	x	1.5	0.72
52	Cc1csc2nc(O)c(C(=O)NCCC3=CCCCC3)c(=O)n12	-1	4	-1.7	4.1	0.66

No.	HNF4A DNA FP	ALR inh	FGF22 binding	B2AR ag
49	-1.7	x	i	2
50	0.5	-2	i	2
51	0.2	2	x	2
52	0.3	-8	i	0

Some of the entries so far, with tabs:
item	Structure	rRNA inh HTS	rRNA inh HTS OD600	rRNA inh HTS RFP	UCH37 DUB inh	Ecoli growth	HNF4A DNA FP	ALR inh	FGF22 binding	B2AR ag
52	Cc1csc2nc(O)c(C(=O)NCCC3=CCCCC3)c(=O)n12	-1	4	-1.7	4.1	0.66	0.3	-8	i	0
50	Cc1cc(C)cc(OCC(O)CN2C(=O)NC(C)(C)C2=O)c1 (stereo unspecified)	3	8	1.2	1.1	0.71	0.5	-2	i	2
51	Cc1ccc(S(=O)(=O)c2c(C)nn(C(C)(C)C)c2OC(=O)C(C)(C)C)cc1	x	x	x	1.5	0.72	0.2	2	x	2
49	Cc1ccc(-c2csc(NC(=O)/C=C/c3cccs3)n2)cc1C	-21	-1	14	-12	0.71	-1.7	x	i	2

This is a subset; the hit share may differ from the screen's.
